Source: PubChem
BJeLR lethal: kills HRASV12-expressing BJeLR cells; BJeLR (HRASV12) viability, CellTiter-Glo ATP luminescence, 48 h; reference of the scale not given here; inhibition, % (no concentration beside the values); actives 0.17% (n = 300,000);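 active means replicate mean above 50%; inconclusive means above 50% but judged a plate artefact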;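 further: 50 nL library stock added to about 25 µL; numbers are from one replicate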
RN4220 kill: kills Staphylococcus aureus RN4220 | AID 1259311 | S. aureus RN4220 growth, OD600, 16 h | inhibition, % (test concentration not listed) | actives 0.33% (n = 330,000);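 active means z-score of -3 or lower and OD600 up to 0.18 on both plates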;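 further: plate controls were untreated cells for no effect and reference antibiotic for full effect; stock transfer was 100 nL into about 80 µL; one replicate is shown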
PrP UTR inh: suppresses PrP 5' UTR mRNA reporter expression; inhibition, % (no concentration beside the values); AID 488862; cell-based PrP 5' UTR mRNA reporter, plate reader; actives 0.35% (n = 340,000);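 active means every replicate at 50% or more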;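 further: 0 = median of the neutral control wells; tested in H4 reporter cells; numbers are from one replicate; inactives centre near -14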
Autofluor counter: counter-screen for toxin protease inhibitors: compound fluorescence; compound autofluorescence counterscreen, microsphere flow cytometry; active compounds read high; fluorescence intensity (test concentration not listed); actives 3.1% (n = 360,000);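 active means at least 3 SD above the mean of all compounds, about 16000 in these data; inconclusive means too few beads counted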;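 further: 100 nL of 1 mM stock went into each well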
Mtb hypoxia inh: Mtb hypoxia fluorescent reporter inhibition | M. tuberculosis hypoxia-regulated fluorescent reporter, fluorescence | fluorescence inhibition, % (concentration not given with the values) | actives 0.1% (n = 300,000);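 active means 35 to 45% if threefold the growth effect, above 45% if 1.5-fold the growth effect; inactive means the rest, general growth blockers included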;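 further: wells of about 50 µL received 100 nL stock; 0% = vehicle wells and 100% = reference inhibitor wells; whole bacteria with a GFP reporter of the hypoxia response; strong numbers were not always called active; many hits fall short of the cut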
ugtP null kill: kills S. aureus RN4220 lacking UgtP; actives 0.54% (n = 330,000); S. aureus RN4220 ugtP deletion, OD600 growth, 16 h; some inactives read as strong as hits; growth inhibition, % (concentration not given with the values);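 active means z-score under -3 and OD600 up to 0.15 on both plates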;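 further: plate controls were untreated wells for no effect and antibiotic for full effect; wells of about 80 µL received 100 nL stock; the first replicate is given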
Mtb hypoxia inh growth: further read-out of Mtb hypoxia inh, marked with its call; growth inhibition, %; measured here: M. tuberculosis growth (absorbance);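 0% = vehicle and 100% = reference antibiotic; read after six days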
* marks the source's active call; other numbers are inactive results; ? = inconclusive; . = not tested or not shown.

Each structure is followed by: PrP UTR inh	Mtb hypoxia inh	Autofluor counter	ugtP null kill	BJeLR lethal	RN4220 kill	Mtb hypoxia inh growth
1. COc1ccc(OCc2nnc(SCC(=O)N3CCCc4ccccc43)n2-c2ccc(C)cc2)cc1
→ -8	1	4344	-6	-4	1.1	5
2. CC1CCc2cc(F)ccc2N1C(=O)c1cc2nc(-c3ccco3)cc(C(F)(F)F)n2n1 (configuration not stated)
→ -17	3	2791	-20	-1	-6.9	8
3. CCOc1ccc(NC(=O)Cn2c(=O)n(CCCC(=O)NC3CCN(Cc4ccccc4)CC3)c(=O)c3ccccc32)cc1
→ -16	-3	3770	2	-2	0.5	-3
4. CCOc1ccc(N2CC(C(=O)NC(C)C)CC2=O)cc1 (configuration not stated)
→ -16	11	3669	8	-1	2.4	11
5. CN=C1S/C(=C\c2cccc(Cl)c2Cl)C(=O)N1C
→ .	6	.	16	-8	11	-3
6. COc1cc(NC(=O)c2ccccc2)c(OC)cc1NC(=O)Cc1cccs1
→ -2	-1	4944	-5	6	14	-3
7. CCOc1cc(NC(=O)c2ccco2)c(OCC)cc1NC(=O)COc1ccccc1C
→ 1	9	3512	2	12	16	12
8. COc1cccc(S(=O)(=O)NCC(=O)Nc2ccc(C(C)(C)C)cc2)c1
→ -40	2	8981	5	12	16	-2
9. CC(C(=O)Nc1ccc2c(c1)OCO2)N(C)CC(=O)Nc1ccccc1Cl (configuration not stated)
→ -15	-2	3529	3	.	5.9	-3
10. O=C(CSc1ncn[nH]1)Nc1ccc(OCc2ccccc2)cc1
→ -16	1	3238	4	-5	4.1	-8
11. O=C(c1ccc(Br)o1)N1CCN(c2ncccn2)CC1
→ -9	.	4396	3	7	2.4	.
12. COC(=O)c1c(NC(C)=O)sc(C(=O)Nc2ccccc2F)c1C
→ -35	0	4318	-1	.	5.0	6
13. O=C(COC(=O)c1cccs1)NCc1cccs1
→ -51	7	5084	2	-5	0.0	-4
14. COc1ccc(C)cc1NC(=O)Nc1ccc(C(=O)N2CCCC2)cc1
→ -8	-3	5953	4	13	0.4	1
15. COc1ccc(Cc2nnc(NC(=O)c3ccc(C)cc3)s2)cc1OC
→ 2	9	3784	2	2	4.7	2
16. COc1ccccc1NS(=O)(=O)c1cc(NC(=O)CNC(=O)c2cc(C)cc(C)c2)ccc1C
→ -36	10	8840	6	-1	-9.1	2
17. COCCCNc1nc2c(c(=O)n(Cc3ccc(Cl)cc3)c(=O)n2C)n1C
→ -11	-11	3546	2	1	4.0	-3
18. O=C(CCS(=O)(=O)Cc1ccccc1)Nc1nc2c(s1)CCCC2
→ -21	11	9306	-2	-9	6.0	7
19. COCCCNC(=O)CCc1nnc(Cc2ccc(-c3ccccc3)cc2)o1
→ -5	-3	4261	1	-1	1.6	-6
20. O=C(CCN1C(=O)/C(=C/c2ccc(Cl)cc2)SC1=S)Nc1cccc(C(=O)O)c1
→ -17	3	3613	7	6	3.7	8
21. COc1ccc(CCC(=O)NCc2ccc3c(c2)OCO3)cc1
→ -5	-7	3274	4	-5	3.6	-6
22. O=C(Nc1ccccc1)c1ccccc1OCc1ccc(S(=O)(=O)N2CCOCC2)cc1
→ -15	5	4907	0	-6	4.3	-4
23. CCC1(OC(=O)c2ccccc2)CC(C)N(C)CC1C (configuration not stated)
→ -19	-4	3840	6	1	2.2	9
24. CC(C)CNC(=O)COC(=O)CCC(=O)c1cccs1
→ 1	12	2634	4	7	0.1	3
25. COc1cc(O)sc1C=Nc1ccc(Cl)cc1Cl
→ -20	5	2276	-7	-14	3.2	1
26. C=CCNC(=S)Nc1cccc([N+](=O)[O-])c1
→ -25	6	3509	-1	-5	2.9	1
27. CCn1nnc(NC(=O)CSc2ccc(Cl)cc2)n1
→ -31	7	24449*	9	17	3.1	2
28. COc1cccc(CNC(=O)COC(=O)c2cccc(S(=O)(=O)N3CCN(C(C)=O)CC3)c2)c1
→ -18	-1	3483	2	.	4.4	8
29. CCN(CC)CCCNC(=O)c1c(O)c2ccccc2n(Cc2ccccc2)c1=O
→ -3	.	2673	29	9	-6.2	.
30. Cc1ccc(C(=O)Oc2cccc(-n3cnnn3)c2)cc1
→ -24	2	4459	5	5	-3.2	1
31. Nn1c(SCC(=O)NC2CCS(=O)(=O)C2)nnc1-c1cccs1 (configuration not stated)
→ -8	-4	6189	3	-8	3.2	7
32. CCN(CC)S(=O)(=O)c1ccc(C(=O)OCC(=O)NC2CCCC2)cc1
→ -12	12	3173	3	0	3.0	1
33. O=C(O)c1ccc(S(=O)(=O)N(Cc2ccccc2)C2CCCCC2)cc1
→ -13	4	4158	5	0	-0.6	4
34. Cc1[nH]n(C)c(=O)c1C(=O)c1c(-c2c(Cl)cccc2Cl)noc1C
→ -88	4	.	1	-5	2.1	8
35. CCn1cc(/C=C(\NC(=O)c2ccccc2OC)C(=O)N2CCN(C)CC2)c2ccccc21
→ -14	5	5601	4	0	-0.2	5
36. CC(CNC(=O)CCc1nnc(CCC2CCCCC2)o1)c1ccccc1 (configuration not stated)
→ -25	9	5188	5	-5	-0.5	14
37. COc1ccc(NC(=O)N(C)C[C@H]2Oc3c(NC(=O)Nc4c(C)noc4C)cccc3C(=O)N([C@H](C)CO)C[C@@H]2C)cc1
→ -7	-5	2976	1	.	-0.1	-1
38. O=C(NCC(=O)N(Cc1ccccc1)C(C(=O)NCC1CCCO1)c1ccccc1)c1ccco1 (configuration not stated)
→ 2	11	3528	11	-6	3.2	6
39. Cc1cccc(CN2CCN(c3ncccn3)CC2)c1
→ -8	15	4222	-2	-6	2.6	3
40. O=C(c1cc(-c2ccco2)nc2ccccc12)N1CCCC(C(F)(F)F)C1 (configuration not stated)
→ -15	4	8460	-1	.	1.6	1
41. Cc1ccc(OCCOc2cccc(/C=N/NC(N)=O)c2)cc1
→ -16	.	3874	.	-3	.	.
42. CSc1nnc(N(CCC#N)CCC#N)s1
→ 7	.	?	2	-8	0.4	.
43. CCOC(=O)c1cccc(NC(=O)CN(c2ccc(OC)cc2)S(=O)(=O)c2c(C)noc2C)c1
→ -55	.	20239*	.	0	.	.
44. O=C(N/N=C/c1ccncc1)c1ccccn1
→ -39	.	3735	.	8	.	.
45. O=C(Nn1c(-c2ccccc2)nc2ccccc2c1=O)c1ccc([N+](=O)[O-])cc1
→ -3	.	2381	.	4	.	.
46. Cc1cc(-c2nnc(SCC(=O)Nc3ccc(Cl)cn3)n2N)n[nH]1
→ 2	1	4645	4	0	1.2	-1
47. Cc1ccc(OC(=O)c2ccncc2)c(C)c1
→ -22	1	3621	3	-12	2.5	-5
48. NC(=O)c1ccc(NC(=O)COC(=O)CCC2CCCCC2)cc1
→ 3	-10	2773	2	.	1.1	-7
49. Cc1cc2oc(C(=O)Nc3cccnc3)c(C)c2cc1C
→ -71	0	4997	16	8	8.0	1
50. COCCNC(=O)C(=O)N/N=C/c1cccs1
→ -28	.	4438	.	3	.	.
51. CC(Sc1nc(-c2ccccc2)cc(C(F)(F)F)n1)C(=O)Nc1ccc2c(c1)OCO2 (configuration not stated)
→ -24	-8	1996	0	-15	-4.6	1
52. CCc1n[nH]c(=S)n1/N=C/c1cc(OC)cc([N+](=O)[O-])c1O
→ -22	.	2704	.	4	.	.
53. Cc1ccccc1NC(=S)NCc1ccc2[nH]c3c(c2c1)CCCC3
→ 39	10	6294	-6	-9	-1.6	5
54. CC(C)N1C(=O)/C(=C\c2nc3ccccc3c(=O)[nH]2)c2ccccc21
→ -10	-1	2420	-21	.	5.5	6
55. CC(=O)N(CCCN(C)C)CCC(C)CCC=C(C)C (configuration not stated)
→ -43	13	8061	12	1	6.4	7
56. C#CCOCCOCCOCCNc1nc(N2CCN(C(=O)C(C(C)CC)n3cc(C(N)CC(C)C)nn3)CC2)nc(N2CCN(C(=O)C(C(C)CC)n3cc(C(N)CC(C)C)nn3)CC2)n1 (configuration not stated)
→ .	15	.	-8	.	-1.4	13
57. Cc1ccc(C(=O)OCC(=O)Nc2ccc(Cl)cn2)s1
→ -13	7	3584	5	.	5.3	4
58. CCOC(=O)c1cc(-c2ccccc2C)nn1CC1CC(c2ccc(OC)cc2)=NO1 (configuration not stated)
→ -15	7	4082	0	.	3.1	-2
59. COc1ccc(-n2c(C)cc(C)c(C(C)=O)c2=S)cc1
→ -5	0	10943	0	-5	-5.9	3
60. COc1ccccc1N1CCN(C(=O)c2ccc(CSc3ccccc3)cc2)CC1
→ -13	7	2548	-17	-9	2.4	10

Nine entries already listed, sorted by SMILES length, highest first.
Each structure is followed by: PrP UTR inh	Mtb hypoxia inh	Autofluor counter	ugtP null kill	BJeLR lethal	RN4220 kill	Mtb hypoxia inh growth
35. CCn1cc(/C=C(\NC(=O)c2ccccc2OC)C(=O)N2CCN(C)CC2)c2ccccc21
→ -14	5	5601	4	0	-0.2	5
45. O=C(Nn1c(-c2ccccc2)nc2ccccc2c1=O)c1ccc([N+](=O)[O-])cc1
→ -3	.	2381	.	4	.	.
58. CCOC(=O)c1cc(-c2ccccc2C)nn1CC1CC(c2ccc(OC)cc2)=NO1 (configuration not stated)
→ -15	7	4082	0	.	3.1	-2
52. CCc1n[nH]c(=S)n1/N=C/c1cc(OC)cc([N+](=O)[O-])c1O
→ -22	.	2704	.	4	.	.
33. O=C(O)c1ccc(S(=O)(=O)N(Cc2ccccc2)C2CCCCC2)cc1
→ -13	4	4158	5	0	-0.6	4
53. Cc1ccccc1NC(=S)NCc1ccc2[nH]c3c(c2c1)CCCC3
→ 39	10	6294	-6	-9	-1.6	5
39. Cc1cccc(CN2CCN(c3ncccn3)CC2)c1
→ -8	15	4222	-2	-6	2.6	3
50. COCCNC(=O)C(=O)N/N=C/c1cccs1
→ -28	.	4438	.	3	.	.
44. O=C(N/N=C/c1ccncc1)c1ccccn1
→ -39	.	3735	.	8	.	.

The listing continues:
Each structure is followed by: PrP UTR inh	Mtb hypoxia inh	Autofluor counter	ugtP null kill	BJeLR lethal	RN4220 kill	Mtb hypoxia inh growth
61. Cc1cccc(C)c1N1C(=O)CC(N2CCSCC2)C1=O (configuration not stated)
→ -12	17	4002	5	3	4.5	13
62. CC(=O)N1CCN(C(=O)COc2ccccc2C(=O)Nc2ccccc2)CC1
→ -16	5	4236	1	2	8.1	8
63. O=C(CNC(=O)c1ccccc1Cl)Nc1ccc(Br)cc1C(=O)c1ccccc1
→ -20	12	2586	0	4	0.2	11
64. O=C(NC12CC3CC(CC(C3)C1)C2)c1ccc([N+](=O)[O-])o1
→ -54	6	2986	13	6	13	18
65. COC(=O)[C@H](Cc1ccc(O)cc1)NC(=O)Cn1cnc2c(SC)nc(N)nc21
→ -19	-4	3086	2	.	2.2	-2
66. CCOC(=O)N1CCN(C(=O)CCCn2nc(C)c3sc4ccccc4c3c2=O)CC1
→ 2	4	2354	0	4	3.6	0
67. O=C(NC(C(=O)NN=Cc1c2ccccc2cc2ccccc12)c1n[nH]c(=O)c2ccccc12)c1ccccc1 (configuration not stated)
→ .	-15	.	6	.	30	-10
